Assay outcomes deposited in PubChem BioAssay by National Center for Advancing Translational Sciences (NCATS).
Sfp inh: Sfp phosphopantetheinyl transferase inhibition; Q9F4F7; Biochemical Sfp PPTase activity, qHTS; Potency, µM, for inactives: max response, negative = inhibition, hits mostly inhibitors; hit rate 3.5% among 310,000; AID 1490; active = well fitted inhibition curve with a large enough effect; inconclusive = small, poorly fitted or top-dose-only effect, or another doubt; inactive = no such curve, though single readings can be large or run the other way;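 note: the enzyme is Sfp with the accession as filed and its product quenches rhodamine fluorescence; potency is the fitted concentration of half-maximal effect; 0% = enzyme reaction without inhibitor and -100% = no enzyme wells; top concentration of the series not given in the record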
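Sfp 15 nM + cpd, 15 min RT; start w/ rhodamine-CoA 5 uM, BHQ-2-YbbR 12.5 uM (final); 50 mM Hepes pH 7.6, 10 mM MgCl2, 0.01% NP-40, 0.01% BSA; read 525/598 nm at 0 and 30 min.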
Menin-MLL FL inh: inhibitors of human menin-MLL interaction, wild-type MLL peptide; Fluorescence polarization, fluorescein-MLL peptide displacement from menin; FP activity change, % at 61.4 µM; 290,000 tested, under 10 active; AID 1766; inconclusive = falling polarisation curve, or a change in total fluorescence; inactive = total fluorescence flat and polarisation flat or rising; no compound was filed as active; the % refers to the polarisation; negative = inhibition;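 note: % of control where 0% means no effect; inhibitors lower the polarisation; unlabelled MLL peptide was the positive control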
D2 ag: activates the human D2 dopamine receptor. P14416. DiscoveRx PathHunter D2 beta-arrestin, luminescence, 90 min; 100% = 57 uM dopamine signal. activation, % (test concentration not listed). hit rate 0.084% among 360,000. AID 624465; in the data active = activation above about 40%; inconclusive = about 15% to 40%; inactive = below about 15%; note: compound concentration not given in the record; the text of the record calls up to 30% inactive
Target sequence (P14416 whole entry, looked up): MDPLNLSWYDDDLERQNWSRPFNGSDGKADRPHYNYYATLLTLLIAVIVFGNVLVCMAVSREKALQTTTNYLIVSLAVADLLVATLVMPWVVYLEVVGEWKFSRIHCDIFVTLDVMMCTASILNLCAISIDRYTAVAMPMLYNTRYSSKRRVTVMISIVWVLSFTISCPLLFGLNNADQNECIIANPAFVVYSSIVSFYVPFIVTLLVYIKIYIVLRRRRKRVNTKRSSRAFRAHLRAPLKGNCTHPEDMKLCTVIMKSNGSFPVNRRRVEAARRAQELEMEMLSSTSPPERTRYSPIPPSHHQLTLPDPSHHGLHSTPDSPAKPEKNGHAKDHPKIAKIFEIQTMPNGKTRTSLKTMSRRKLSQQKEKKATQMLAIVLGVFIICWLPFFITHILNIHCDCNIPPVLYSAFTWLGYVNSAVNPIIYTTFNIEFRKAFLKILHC
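DiscoveRx PathHunter D2 beta-arrestin cells (2,100/well) attached overnight, then compound-stimulated 90 min at 37 C in HBSS/10 mM HEPES/0.1% Tween-20 buffer; beta-galactosidase complementation read by luminescence after 1 h at ambient temperature. Dopamine 57 uM final (EC100) as control.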
PINK1 modulator: PINK1 expression modulation. PINK1 immunofluorescence, high-content cytometry, 24 h. Potency, µM (series often up to 76.6 µM), for the others: at the highest dose activation (PINK1 increase), actives largely listed as activators. hit rate 0.2% among 410,000; active = well fitted activation curve with a large enough effect; inconclusive = small, poorly fitted or top-dose-only effect; inactive = flat fitted curve, though single readings scatter; cell line not stated here;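 note: potency is the fitted concentration of half-maximal effect; % of control where 0% means no effect; nearly all actives have a fitted effect of over 65% in size; a mitochondrial uncoupler was the plate control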
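Stable cell line, 250 cells/well, 12 h attachment; compounds pinned at 5 concentrations, 24 h; CCCP control. Fixed with nuclear dye, primary antibodies 12 h at 10 degrees C, secondary plus cell stain; laser-scanning cytometer read.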
ClpP mod: qHTS Assay for Activators of ClpP. Potency, µM (titrated, usually from 57.5 µM), inactives show at the top dose activity change, negative = active. hit rate 1.9% among 340,000. purified B. subtilis ClpP, FRET peptide cleavage, 20 min. ATP-dependent Clp protease proteolytic subunit (Bacillus subtilis (strain 168)), P80244; active = well fitted falling curve with a large enough effect; inconclusive = small, poorly fitted or top-dose-only effect; inactive = no such curve, though single readings can be large or run the other way; note: potency is the fitted concentration of half-maximal effect; the source files actives as falling curves though it sought activators and does not explain the sign; nearly all actives have a fitted effect of over 65% in size; many hits overshoot -100%
Target sequence (P80244 whole entry, looked up): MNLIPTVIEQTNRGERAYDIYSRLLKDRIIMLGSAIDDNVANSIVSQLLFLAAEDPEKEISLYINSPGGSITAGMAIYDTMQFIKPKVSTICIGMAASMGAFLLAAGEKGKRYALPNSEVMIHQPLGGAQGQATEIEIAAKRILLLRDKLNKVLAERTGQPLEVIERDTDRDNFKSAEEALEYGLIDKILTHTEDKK
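FRET quenching reversal measured ClpP activation: 10 microg/mL B. subtilis ClpP at pH 8 with the FRET-FV decapeptide, read at 430 nm after 320 nm excitation. The 20-min minus 0-min signal was scaled between DMSO/no-enzyme wells and ADEP (5.8 microM final).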
gsp antagonist: antagonists of gsp mutant (McCune-Albright syndrome). gsp-mutant cells, cAMP HTRF, 30 min; control for the full effect not named in the record. hit rate 0.4% among 340,000. Potency, µM (series often up to 76.9 µM), without a hit: at the highest dose activity change, negative = inhibition, usual class: inhibitors. AID 624288; active = falling curve of any shape with a large fitted effect; inconclusive = falling curve, mostly with a smaller effect; inactive = flat or rising curve; cell line not stated here;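 note: intracellular cAMP measured with PDE inhibitor Ro 20-1724 present during compound exposure; potency is the fitted concentration of half-maximal effect; % is set by controls: 0 for no effect and ±100 for the full control effect; nearly all actives have a fitted effect of over 65% in size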
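Cells in G418 medium, seeded 16-24 h, 37C; buffer exchange to DPBS + 1 mM CaCl2, 0.5 mM MgCl2, 0.05% BSA; cpds in DMSO + […] (300 uM stock), 30 min 37C; HTRF cAMP detection.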
gsp ag: activates gsp, the McCune-Albright syndrome mutation. Potency, µM (top dose mostly 76.9 µM), without a hit: top-dose activation (cAMP increase), hits mostly activators. hit rate 0.13% among 340,000. gsp mutant cells, cAMP HTRF, 30 min; control for the full effect not named in the record; active = well fitted activation curve with a large enough effect; inconclusive = small, poorly fitted or top-dose-only effect, or another doubt; inactive = no such curve, though single readings can be large or run the other way; cell line not stated here;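 note: phosphodiesterase inhibitor Ro 20-1724 added with compounds to block cAMP breakdown; potency is the fitted concentration of half-maximal effect; nearly all actives have a fitted effect of over 60% in size; about a fifth of the inactives were tested at one dose only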
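Cells stably selected in G418 were plated at 2000/well, grown 16-24 hr, then given compounds in DMSO with the PDE inhibitor […] (300 uM solution added) for 30 min at 37C; cAMP was read by HTRF.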
An asterisk follows results filed as active; ? = inconclusive; / = no result given; [ ] = another dose, or the depositor's remark.

SMILES	Sfp inh	Menin-MLL FL inh	D2 ag	PINK1 modulator	ClpP mod	gsp antagonist	gsp ag
Cc1cc(NC(=O)CCSc2ccc(Cl)cc2)no1	17%	2.4	-1.0	1.5%	/	-1%	-8%[15.4 µM]
CCCCNC(=O)Nc1ccccc1C(=O)NCc1ccco1	10%	3.1	0.6	-1.5%[38.3 µM]	-6.1%	4%	-3%
Cc1cccc(/C(N)=N/OC(=O)Cc2cccs2)c1	11%	2.3	-0.1	-1.1%	-0.8%	4%	21%
CC(=O)N1c2ccc(S(=O)(=O)N3CCC(C(=O)N4CCN(c5cccc(C(F)(F)F)c5)CC4)CC3)cc2CC1C (stereo not drawn)	4%	/	3.6	-1.0%	-11%	-12%	13%
COc1ccc(CNC(=O)C(C)N=C2NS(=O)(=O)c3ccccc32)cc1OC (stereo not drawn)	5%	-0.3	-2.8	-1.7%	-1.4%	6%	?
Cc1ccc(-c2csc3nc[nH]c(=S)c23)cc1	4%	8.9	-1.8	2.7%	1.3%	-11%	-7%
O=C(Nc1cccnc1)c1ccccc1O	16%	-3.8	-5.9	-0.9%	-4.4%	-14%	-68%[inhibitor]
CN(C)S(=O)(=O)c1cccc(C(=O)NCC2CCCO2)c1 (stereo not drawn)	16%	3.2	-0.5	-1.8%	-0.7%	-2%	?
O=C1NC2(CCCCC2)C(=O)N1CC(=O)N1CCc2ccccc21	/	/	0.3	1.7%	/	8%	22%
S=c1[nH]nc(-c2n[nH]c3c2CCC3)n1/N=C/C=C/c1ccco1	11µM*	15	-9.4	2.8%	-2.8%	?	-4%
COCCOC(=O)C1=C(C)NC2=C(C(=O)CCC2)C1c1cc2c(cc1Br)OCO2 (stereo not drawn)	7%	0.1	-0.5	/	-8.4%	-1%	-16%
O=C(NCc1ccccc1)c1cc(-c2ccncc2)nc2ccccc12	11%	-7.8	0.3	0.9%	/	-14%	?
Cc1ccccc1NC(=O)CN1CCc2ccccc2C1	16%	3.0	?	0.8%	/	10%	-10%
CCOc1ccc(NC(=O)Cn2cc(C(C)=O)c3ccccc32)cc1	18%	4.8	-1.1	2.0%	/	2%	1%
O=C(Nc1ccc(COc2ccccc2)cc1)c1cccc([N+](=O)[O-])c1	2%	2.6	4.9	5.9%	/	?	2%[15.4 µM]
COc1ccc(Cl)cc1CSc1ncn[nH]1	9%	2.0	-4.1	3.0%	/	-10%	4%[15.4 µM]
O=C(NCc1ccccc1)c1cc(C2CCCN(S(=O)(=O)c3cccs3)C2)on1 (stereo not drawn)	/	/	-0.3	-1.1%	0.8%	/	/
CC(C)c1nc(SCC(=O)N2c3ccccc3CC2C)c2ccccc2n1 (stereo not drawn)	-22%	0.3	0.2	-5.9%[38.3 µM]	0.3%	1%	-32%[inhibitor]
O=S(=O)(Nc1ccc(N2CCOCC2)nn1)c1ccccc1	21%	0.0	-0.7	0.5%	?	9%	-5%
CCC(C)NC(=O)CSc1n[nH]c(=O)n1CCc1ccccc1 (stereo not drawn)	25%	-0.7	-2.4	1.2%	/	12%	13%[15.4 µM]
CCOC(=O)C1=CCN(S(=O)(=O)c2ccc(Br)cc2)C1c1cccc(C)c1 (stereo not drawn)	/	/	-3.9	3.7%	-3.9%	/	/
C/C(Cc1ccccc1)=N\NC(=O)C1CCCCC1	5%	3.1	1.9	4.7%	28µM*	17%	-12%
COC(=O)c1ccccc1NC(=S)NC(NC(=O)c1ccccc1[N+](=O)[O-])C(Cl)(Cl)Cl (stereo not drawn)	-2%	1.4	-2.6	-2.8%	?	?	-14%
Cc1ccc(CCC(=O)Nc2ccc(N(C)C)cc2)o1	4%	-1.1	1.1	-0.8%	-1.8%	-5%	?
CCCc1nc(N2CCN(S(=O)(=O)c3ccc(Cl)cc3)CC2)c2c(C)c(C)sc2n1	?	-0.5	-1.0	2.1%	/	-2%	5%[15.4 µM]
O=C(CCCN1C(=O)/C(=C/c2ccccc2)SC1=S)Nc1ccccc1O	22%	1.4	2.3	2.2%	/	-16%	-21%[15.4 µM]
Cn1ncc(Cl)c(Oc2ccc(C(C)(C)C)cc2)c1=O	-21%	0.6	-1.0	11%	-1.4%	-5%	13%
O=C(OCc1ccc2c(c1)OCO2)c1ccc(S(=O)(=O)N2CCCC2)cc1	13%	-1.5	2.1	1.9%	-4.6%	-2%	-2%
COc1ccc(OCCCC(=O)Nc2ccc(N3CCOCC3)cc2)cc1	15%	-0.5	3.9	0.1%	-1.0%	-18%	-20%
O=C(CN1C(=O)NC2(CCc3ccccc32)C1=O)Nc1cccc(F)c1 (stereo not drawn)	/	/	-1.1	1.8%	/	5%	-5%[15.4 µM]
CCOC(=O)CCCNC(=O)COc1ccccc1C#N	11%	3.3	-2.3	-0.8%	-1.9%	6%	3%
COc1ccc2oc(=O)c(/C(C)=N/NC(=O)c3ccncc3)cc2c1	-6%	-0.7	-3.8	0.9%	-1.7%	8%	8%
O=C(Nc1nnc(C2=COCCO2)o1)c1ccc(S(=O)(=O)N2CCCC2)cc1	17%	-7.3	-6.3	-1.9%	/	-11%	-41%[inhibitor]
O=C(Nc1cccc(C(=O)N2CCN(c3cccc(Cl)c3)CC2)c1)c1ccccc1	-3%	2.4	0.2	5.7%	0.4%	?	-18%
COCC(C)NCc1cccc([N+](=O)[O-])c1 (stereo not drawn)	-6%	-1.8	0.0	2.6%[38.3 µM]	0.7%	15%	7%
O=c1c(Br)ccc(Br)cc1Br	/	/	-3.0	3.5%	0.7%	-29%	?
Cc1ccc(F)cc1NC(=O)CN1CCN(Cc2ccccc2)CC1	14%	0.2	1.4	9.9%	-1.2%	3%	-1%
O=C(Nc1cnccn1)c1cccs1	-4%	-10	-2.4	7.3%[38.3 µM]	-7.5%	6%	12%
O=C1CC(c2ccccc2)CCc2sccc2N1 (stereo not drawn)	17%	-5.4	-2.2	2.8%[38.3 µM]	-1.7%	-6%	3%
O=C(c1ccc([N+](=O)[O-])cc1Cl)N1CCN(c2ccccn2)CC1	2%	1.5	4.6	-0.8%	0.3%	7%	-4%
Cc1ccc(N2CC(=O)N(CC(=O)O)C2=O)cc1	-8%	4.7	1.2	1.7%	/	10%	-31%[inhibitor]
CCOc1ccc2ccccc2c1CNCCCN1CCOCC1	/	/	-4.1	1.4%	-11%	/	-52%[inhibitor]
CCCCOC(=O)C(C)Oc1ccc(=O)n(-c2ccccc2)n1 (stereo not drawn)	21%	0.5	-2.6	-0.9%	-0.7%	-1%	-40%[inhibitor]
CC(=O)c1cccc(NC(=O)CCc2nnc3ccc(NCc4ccc5c(c4)OCO5)nn23)c1	16%	1.4	0.3	0.8%	-2.2%	-9%	?
CC(Oc1ccccc1F)C(=O)Nc1ccc2ccccc2c1 (stereo not drawn)	-8%	-2.5	-2.5	2.2%	-27%	2%	9%
CCOC(=O)Cn1c(=N)n(CCOc2ccc(Br)cc2)c2ccccc21	-7%	-0.2	-8.7	-1.7%	/	-3%	-9%[15.4 µM]
CCOC(=O)c1c(C)oc2c1c(C=NCC1CCCO1)c(O)c1ccccc12 (stereo not drawn)	12%	6.9	6.5	0.5%	-0.3%	6%	7%[15.4 µM]
Cc1cc(C(=O)O)cc(S(=O)(=O)Nc2ccccc2C(=O)NC(C)c2ccccc2)c1C (stereo not drawn)	7%	-0.6	-5.6	-1.3%	-8.6%	9%	20%
CC1CN(Cc2ccccc2)c2nc3c(c(=O)n(CC(=O)O)c(=O)n3C)n2C1 (stereo not drawn)	32%[activator]	-5.3	0.7	0.2%	/	5%	-36%[inhibitor]
C/C(CC(=O)Nc1cccc(C(F)(F)F)c1)=N\NC(=O)c1ccncc1	2%	6.7	-3.2	3.5%	/	-5%	10%[15.4 µM]
CC(=O)Nc1ccc(NC(=O)CSc2nc(=O)n3cccc(C)c3n2)cc1	/	/	-1.6	10%	-1.2%	14%	?
COc1cccc(OC)c1OCCN1CCN(C(=O)c2ccco2)CC1	9%	1.1	44*	1.9%	-12%	5%	0%
CCOc1ccc(N=C(/C(C(=O)C(=O)N2CCOCC2)=C(\O)c2ccccc2)c2ccccc2)cc1	4%	6.4	-1.6	-0.9%	1.8%	4%	1%
CC(NC(=O)c1ccccc1Cl)NC(=O)c1ccccc1Cl	19%	5.0	-2.8	1.8%	-1.1%	6%	5%
OCCCc1nc2ccccc2n1CCc1ccccc1	15%	-0.1	-2.4	2.0%[38.3 µM]	0.0%	5%	-29%
CN(C)C(=O)CSc1ccccc1C(=O)OCC(=O)NC1CC1	/	/	-3.9	-1.4%	-2.2%	5%	-23%
Cc1ccc(-n2c(=O)cc(NCc3cccnc3)[nH]c2=O)cc1	-4%	-1.3	0.4	2.4%[38.3 µM]	-1.4%	12%	-18%
Cc1ccc(S(=O)(=O)N(CC(=O)NCc2cccnc2)c2ccc(F)cc2)cc1	-10%	-0.7	-2.4	4.9%	/	0%	22%
COCCNC(=O)c1ccccc1NC(=O)CCSc1ccccc1	-13%	0.1	-5.2	1.2%	-9.3%	0%	?
Cc1cc(C)cc(NC(=O)N2CCN(C/C=C/c3ccccc3)CC2)c1	-2%	0.2	-2.7	1.6%	/	2%	-59%[inhibitor]
COc1cc(C)nc(Oc2ccc(=O)[nH]n2)n1	2%	-0.3	-6.5	-3.1%	-4.8%	3%	0%
FC(F)(F)c1cccc(-n2cc(-c3ccccc3)[nH]c2=S)c1	12%	-8.7	-6.7	1.4%	-2.2%	-6%	2%[15.4 µM]

Part of the list above in a different format:
| mol | Sfp inh | Menin-MLL FL inh | D2 ag | PINK1 modulator | ClpP mod | gsp antagonist | gsp ag |
| --- | --- | --- | --- | --- | --- | --- | --- |
| CC(NC(=O)c1ccccc1Cl)NC(=O)c1ccccc1Cl | 19% | 5.0 | -2.8 | 1.8% | -1.1% | 6% | 5% |
| OCCCc1nc2ccccc2n1CCc1ccccc1 | 15% | -0.1 | -2.4 | 2.0%[38.3 µM] | 0.0% | 5% | -29% |
